Source: PubChem
GCN5L2 inh – blocks human GCN5L2 histone acetyltransferase; Potency, µM (top dose mostly 58.9 µM), without a hit: top-dose activity change, negative = inhibition, usual class: inhibitors; hit rate 0.21% among 390,000; GCN5L2 HAT assay, ThioGlo1 CoA-SH fluorescence; Q92830
Target sequence (Q92830 whole entry, looked up): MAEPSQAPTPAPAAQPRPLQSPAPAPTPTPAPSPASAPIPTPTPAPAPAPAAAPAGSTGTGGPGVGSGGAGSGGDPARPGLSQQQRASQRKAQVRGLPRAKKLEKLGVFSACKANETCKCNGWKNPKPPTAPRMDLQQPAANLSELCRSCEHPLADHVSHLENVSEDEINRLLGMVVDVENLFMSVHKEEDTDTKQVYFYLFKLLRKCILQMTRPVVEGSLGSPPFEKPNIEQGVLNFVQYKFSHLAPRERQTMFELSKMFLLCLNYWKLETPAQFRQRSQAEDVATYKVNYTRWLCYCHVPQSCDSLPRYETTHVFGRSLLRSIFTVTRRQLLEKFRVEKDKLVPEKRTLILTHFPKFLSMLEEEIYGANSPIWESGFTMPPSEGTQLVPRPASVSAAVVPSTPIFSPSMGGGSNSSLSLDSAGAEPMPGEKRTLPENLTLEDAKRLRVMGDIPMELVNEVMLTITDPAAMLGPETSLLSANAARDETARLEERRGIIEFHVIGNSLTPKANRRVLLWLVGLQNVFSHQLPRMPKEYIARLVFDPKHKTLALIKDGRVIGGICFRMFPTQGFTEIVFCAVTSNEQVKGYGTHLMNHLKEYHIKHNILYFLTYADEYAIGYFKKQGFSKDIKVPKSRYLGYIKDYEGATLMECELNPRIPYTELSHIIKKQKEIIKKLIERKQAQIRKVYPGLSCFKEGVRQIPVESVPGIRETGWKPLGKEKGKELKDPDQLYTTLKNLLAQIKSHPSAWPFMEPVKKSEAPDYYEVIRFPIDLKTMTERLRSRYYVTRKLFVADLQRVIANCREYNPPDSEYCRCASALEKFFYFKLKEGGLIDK
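ThioGlo1-coupled HAT assay: 20nM GCN5L2, 70uM acetyl-CoA, 75uM H3(1-25) peptide, pH 7.5. Fluorescence read at 340/540nm at start and after 20 min at room temperature.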
N370S GC mod – N370S glucocerebrosidase modulation, Gaucher chaperone candidate | P04062 | N370S GC spleen homogenate, 4MU-glucoside fluorescence | Potency, µM (highest dose often 59.4 µM), without a hit: at the top dose activity change, negative = inhibition, most hits filed as inhibitors | hit rate 0.092% among 330,000;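 note: 0% = full enzyme activity and -100% = no enzyme basal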
An asterisk follows results filed as active; u = inconclusive; x = not tested or not shown; & = joins results of further samples; [ ] = remark or other dose. Calls come from the whole dose curve; as a rule, active = well fitted curve in the direction sought with a large enough effect; inconclusive = small, poorly fitted or top-dose-only effect, or another doubt; inactive = no such curve, though single readings can be large; an effect the other way counts as inactive or inconclusive. Unless noted, % is set by controls: 0 for no effect and ±100 for the full control effect; potency is the fitted concentration of half-maximal effect. A portion of the library, and most or all hits are left out here.

Each structure is followed by: GCN5L2 inh, N370S GC mod
1. CCCN(CCC)CCNC(=O)c1cc2c(=O)n(CC)c3ccccc3c2s1
 : -0.7%, 0.8%
2. CCOC(=O)c1ccc2c(c1)n(CC)c(/C=C/Nc1ccccc1)[n+]2CC
 : -9.2%, 1.6%
3. CCOC(=O)C1CCCN(C(=O)c2cc(S(=O)(=O)N3CCCCCC3)ccc2OC)C1 (stereo not drawn)
 : -2.9%, x
4. O=Nc1ccc(O)c2ncccc12
 : 0.0%&-12.6%, -4.6%&-7.0%
5. CC1CCN(S(=O)(=O)c2ccc(NC(=O)[C@@H]3CCCC[C@@H]3C(=O)O)cc2)CC1
 : 0.6%, 0.1%
6. O=C(Cn1cc2c(n1)CCCCC2)Nc1ccccc1Br
 : -18.6%, 21.8%
7. CC(C)COP(=O)(c1ccc(N(C)C)cc1)C(Nc1ccccc1)c1cccnc1 (stereo not drawn)
 : -2.3%, -6.5%
8. COc1ccc(NC(=O)C(NC(=O)c2ccc(=O)[nH]c2)c2ccccc2)cc1 (stereo not drawn)
 : 0.6%, -8.5%
9. CCOC(=O)C1CCN(c2nc3ccccc3nc2C(C#N)C(=O)OCCOC)CC1 (stereo not drawn)
 : 1.2%, -13.1%
10. CN1CCN(C(=O)C2CCCN(S(=O)(=O)c3ccc(Cl)cc3)C2)CC1 (stereo not drawn)
 : -15.5%, 0.4%
11. CCN(CC)CCn1c2c(c(SCC(=O)NCc3ccccc3)nc1=O)CCCC2
 : -10.0%, -7.0%
12. CCCCC(=O)Nc1ccc(C(=O)N2CCN(C)CC2)cc1
 : 4.1%, -4.0%
13. CCn1c2ccccc2c2cc(NC(=O)CNC)ccc21
 : -2.4%, -11.5%
14. O=C(NCCOc1ccccc1)c1cc2ccccc2o1
 : x, 16.0%
15. COc1ccc(-c2sc(Nc3ccc(F)c(F)c3F)nc2CCC(=O)NN)cc1
 : -7.2%, 1.4%
16. COc1ccc(S(=O)(=O)N2CCN(CCC(=O)Nc3ccccc3F)CC2)cc1
 : -22.8%, 10.4%
17. Cc1nn(C)cc1C(=O)NNC(=S)Nc1ccc(Cl)cc1
 : -8.1%, 3.1%
18. O=C1Nc2ccccc2N(O)N1c1cc(-c2ccc(Cl)cc2)[nH]n1
 : -9.5%, -22.7%
19. COc1ccc(-c2cc(C(F)(F)F)nc(SCC(=O)NCc3cnn(C)c3C)n2)cc1OC
 : -9.5%, 5.5%
20. Cc1ccccc1-n1c(SCc2c(C)noc2C)nnc1-c1cccnc1
 : -4.5%, 2.7%
21. COC(=O)C1CCN(C(=O)Cc2c(OC)ccc3cc(Br)ccc23)CC1
 : -5.9%, 10.8%
22. O/N=C(\c1ccc(Cl)cc1)c1cc2ccccc2o1
 : -7.8%, 4.3%
23. CCc1ccccc1NC(=O)c1ccoc1C
 : -2.9%, 2.3%
24. O=C(/C=C/c1ccccc1)N1CCN(C(=O)c2ccco2)CC1
 : -1.6%, -4.4%
25. CCCc1noc(-c2ccc(NCc3ccc(C)cc3)c([N+](=O)[O-])c2)n1
 : 1.8%, x
26. CCc1ccccc1NC(=O)CCn1cccn1
 : 10.2%, x
27. CCCCNC(=O)CSc1nc2cc3c(cc2c(=O)n1CCCCCC(=O)NCc1ccc(OC)cc1)OCO3
 : 1.9%, x
28. O=C(Nc1c[nH]c(=O)[nH]c1=O)c1ccccc1Cl
 : -0.1%, -9.9%
29. CC1CCN(S(=O)(=O)N2CCC(C(=O)NCCc3ccccc3)CC2)CC1
 : -4.0%, -4.5%
30. O=C(N/N=C\c1cc(Br)cs1)c1ccncc1
 : -3.8%, -4.4%
31. O=C(c1cc(-c2ccccc2Cl)nc2ccccc12)N1CCC1
 : 7.6%, 2.0%
32. COc1ccc(S(=O)(=O)N2CCCCC2)cc1NC(=S)Nc1ccccc1
 : -4.0%, -1.8%
33. CCCc1nc2ccc(NC(=O)NCCC(=O)OCC)cc2c(=O)n1Cc1ccc(Cl)cc1
 : -7.3%, 1.2%
34. O=C(NC(NCc1cccnc1)C(Cl)(Cl)Cl)c1cccc2ccccc12 (stereo not drawn)
 : 4.7%, -16.4%
35. O=C(NCC(=O)N1CC=C(c2ccccc2)CC1)c1ccccc1Br
 : -2.0%, 0.6%
36. Cc1nc(C(=O)N2CCc3c([nH]c4ccccc34)C2c2ccccn2)cs1 (stereo not drawn)
 : 0.1%, u
37. COc1ccc(N2C(=O)CC(Nc3ccc(N4CCOCC4)cc3)C2=O)c(OC)c1 (stereo not drawn)
 : -3.6%, 24.8%
38. O=C(Nc1ccccc1Cl)c1cccs1
 : -3.9%, -7.7%[2.35 µM]
39. COc1ccc(C2CC(c3ccccc3)=NN2C(=O)CSc2ncccn2)cc1 (stereo not drawn)
 : -13.9%, 24.4%
40. Cc1ccc(S(=O)(=O)N2CCCCC2)cc1C(=O)N1C(C)CCCC1C (stereo not drawn)
 : 1.5%, x
41. OCC1(CCc2ccccc2)CCN(Cc2ccc3nsnc3c2)CC1
 : 40.7%[activator], -5.3%
42. C=CCSc1nnc2c(n1)OC(c1cccnc1)Nc1ccccc1-2 (stereo not drawn)
 : -12.0%, 3.4%
43. O=C(CC(=O)c1ccccc1)Nc1ccc(Cl)cc1
 : 2.6%, -8.0%
44. CNC(=O)c1ccc(NC(=O)c2cccc(C(F)(F)F)c2)cc1
 : 1.8%, 9.6%
45. CCOC(=O)C1CCN(C(C(=O)NC2CCCC2)c2ccc(C)cc2)CC1 (stereo not drawn)
 : -4.5%, 7.6%
46. CCc1ccc(OCCCC(=O)Nc2ccc(N3CCOCC3)cc2)cc1
 : -4.2%, 3.2%
47. COc1ccc(CNC(=O)CCc2c(C)c3cc4c(C)coc4c(C)c3oc2=O)cc1OC
 : -10.7%, x
48. O=C(Nc1ccccc1)c1ccccc1C(=O)N1CCCCC1
 : -7.3%, -6.2%
49. O=C1c2ccccc2C(=O)N1CCSc1nc2ccccc2c(=O)n1CCCN1CCOCC1
 : u, -13.4%
50. CC(OC(=O)c1cc[n+]([O-])cc1)C(=O)NCc1ccccc1 (stereo not drawn)
 : -1.5%, 1.8%
51. CNC(=O)CC(C(=O)O)c1ccc(OC(C)C)cc1 (stereo not drawn)
 : -6.0%[0.501 µM], -9.8%
52. COCCN(C(=O)CSc1nc2ccccc2c(=O)n1C(C)COC)c1c(N)n(Cc2ccccc2)c(=O)[nH]c1=O (stereo not drawn)
 : -4.9%, 0.5%
53. COc1ccc(NC(=O)c2ccc(N3CCOCC3)nc2)cc1
 : 0.0%, 2.0%
54. O=C(O)CC1(CC(=O)N2CCN(CCO)CC2)CCCC1
 : -2.5%, -3.9%
55. CCC(=O)Nc1cccc(OCc2cc(=O)n3cc(C)ccc3n2)c1
 : -0.3%, x
56. Cc1ccccc1-c1noc(CCC(=O)NC2CCCCC2)n1
 : -2.6%, -4.1%
57. COc1cc(OC)cc(C(=O)NC(C(=O)NNC(=O)c2cc(Cl)ccc2OC)C(C)C)c1 (stereo not drawn)
 : -9.2%, x
58. CCCC(C)c1nnc(NC(=O)CN2C(=O)c3ccccc3C2=O)s1 (stereo not drawn)
 : 25.2%, 8.2%
59. NC(=O)C1CCN(C(=O)c2cc3c(s2)CCCC3)CC1
 : -0.4%, -6.9%
60. CCn1ncc(C2=NOC(C(=O)Nc3cccc(O)c3)C2)c1C (stereo not drawn)
 : -3.1%, 3.7%

Following part:
Each structure is followed by: GCN5L2 inh, N370S GC mod
61. O=C(Cc1ccc(Cl)cc1)N/N=C/c1cccc(O)c1
 : -4.2%, -0.9%
62. COc1ccccc1C(=O)NNC(=S)NC(=O)c1ccco1
 : -5.6%, 2.6%
63. CC1(C)C(O)=C(c2nc3ccccc3[nH]2)C(=N)N1c1ccccc1
 : 23.2%, -19.1%
64. NC(=S)NNC(=O)c1cc(C(F)(F)F)cc(C(F)(F)F)c1
 : 2.8%, -0.2%
65. Cc1nc(SCc2ccccc2)c2ccsc2n1
 : -5.8%, -14.1%
66. O=C(CSc1nnc(-c2ccc(C(F)(F)F)cn2)o1)Nc1ccccc1Cl
 : -9.4%, 2.7%
67. CCC(C)c1ccc(S(=O)(=O)N2CCN(c3ccccn3)CC2)cc1 (stereo not drawn)
 : 1.3%, -2.2%
68. Fc1ccc(-c2nnc(-c3ccc(Cl)cc3Cl)o2)cc1
 : -0.7%, 5.2%
69. CCOc1cc(C(=O)Nc2cccc(C(C)=O)c2)ccc1OCC(=O)N1CCCCC1
 : -3.2%, -14.0%
70. O=C(NC(=S)Nc1nc(-c2ccc(Br)cc2)cs1)c1cccnc1
 : -28.1%, 5.9%
71. Cc1ccc(S(=O)(=O)CCC(=O)Nc2ccc3c(c2)OCO3)cc1
 : -4.2%, 1.8%
72. O=C(COc1ccc(F)c(Cl)c1)N1CCCCCCC1
 : -11.1%, -2.0%
73. O=C1CS/C(=N/N=C/c2ccco2)N1Cc1ccc(F)cc1
 : -21.5%, 23.2%
74. CCC(=O)Nc1ccc(Cl)c(NC(=S)NC(=O)COc2ccc(Cl)cc2)c1
 : -4.3%, 3.3%
75. CC1(c2ccc(C#N)cc2)NC(=O)N(CC(=O)Nc2cc(S(=O)(=O)N3CCOCC3)ccc2Cl)C1=O (stereo not drawn)
 : -12.4%, -0.1%
76. COc1ccc(CN2C(=O)c3cccnc3C2=O)cc1S(=O)(=O)N(C)c1cccc(C)c1
 : -22.2%, -11.7%
77. COC(=O)CN1C(C(=O)c2ccccc2)=C(OC(=O)c2ccc(C)cc2)c2ccccc2S1(=O)=O
 : -11.3%, x
78. O=[N+]([O-])c1ccc(-c2nc(NCC3CCCO3)c3ccccc3n2)cc1 (stereo not drawn)
 : -6.2%, -26.2%
79. COc1ccc(NC(=O)C2CCN(S(=O)(=O)c3ccccc3)CC2)cc1
 : 3.8%, -4.2%
80. Cc1cc(C)cc(Oc2ccccc2C=O)c1
 : -14.4%, 1.2%
81. O=C(COC(=O)Cc1ccsc1)NC(c1ccccc1)c1ccccc1
 : -2.1%, 14.5%
82. CN1CCN(CCCN(Cc2ccco2)C(=S)Nc2ccc(Cl)cc2)CC1
 : -9.9%, 3.7%
83. COc1ccc(CCNC(=O)C2CCC(=O)N(C3CC3)C2)c(OC)c1 (stereo not drawn)
 : -11.0%, -2.3%
84. CCC1(C)N=C(c2ccc3c(c2)OCO3)CC(c2ccccc2O)N1 (stereo not drawn)
 : -5.3%, 3.2%
85. COc1ccc(CCNCC(O)COc2ccc(OC)cc2C(C)(C)C)cc1 (stereo not drawn)
 : -4.3%, -22.8%
86. CCOc1ccc(CCNC(=O)CSCc2nc(-c3cccc(C)c3)oc2C)cc1OCC
 : -6.5%, x
87. CCOc1cc(Br)c(Br)c(C=Nc2ccc(NC(C)=O)cc2)c1O
 : -2.8%, -0.9%
88. O=C(Nc1nnc(-c2ccccc2)o1)Nc1ccccc1Cl
 : -6.6%, 7.0%
89. CC(C)CC(NC(=O)c1ccc(Cl)cc1Cl)C(=O)O (stereo not drawn)
 : 9.4%, 5.1%
90. Cc1cccc(-n2ncc3c2CCCC3NC(=O)CC(F)(F)F)c1C (stereo not drawn)
 : -17.5%, -2.3%
91. Cn1cccc1Cc1nnc(SCC(=O)N2CCc3ccccc32)n1CCc1ccccc1
 : 2.1%, 6.0%
92. CCn1c(C)nc2cc(C(=O)NNS(=O)(=O)c3ccc(C)cc3C)ccc21
 : -2.5%, 4.3%
93. [O-][n+]1onc2c3cc(-c4ccccc4)nnc3ccc21
 : -6.2%, 4.5%
94. CCn1cc(SCC(N)=O)c2ccccc21
 : 0.6%, -16.1%
95. O=C(O)CCC(=O)N1CCc2cc(S(=O)(=O)NCCc3ccc(Cl)cc3)ccc21
 : -0.3%, u
96. COc1ccc(CCNC(=O)c2ccc3c(c2)nc2n3CCOC2)cc1OC
 : 0.3%, x
97. O=C(NCc1ccco1)c1ccc2c(c1)OCCO2
 : -3.1%, -13.0%
98. COc1ccc(OC)c(C(=O)c2c(C)oc3cc([N+](=O)[O-])c(O)c([N+](=O)[O-])c23)c1
 : -6.1%, -11.9%
99. COc1ccccc1NS(=O)(=O)c1cc(C(=O)NCCN2CCOCC2)ccc1Cl
 : 2.4%, -7.6%
100. COc1ccc(Cc2nnc(SCC(=O)NC3CCCC3)o2)cc1
 : 1.4%, 5.0%
101. O=C(CN1CCCCCC1)N/N=C/c1ccc(Cl)c(Cl)c1
 : -4.0%, 4.2%
102. CCc1nnc(SCC(=O)Nc2ccccc2Cl)nc1CC
 : -2.0%&5.3%, -2.8%
103. CCCN1CCN(CCCNC(=O)CCCn2nc(C)c3sc4ccccc4c3c2=O)CC1
 : -4.2%, -11.5%
104. Cc1ccc(NC(=O)C(C)SCc2ccccc2)cc1 (stereo not drawn)
 : -0.6%, 1.1%
105. O=C(CCNS(=O)(=O)c1ccccc1)N1CCCCCC1
 : -0.8%, -8.1%

Rewritten as tab-separated lines: part of the list above.
entry	Molecule	GCN5L2 inh	N370S GC mod
18	O=C1Nc2ccccc2N(O)N1c1cc(-c2ccc(Cl)cc2)[nH]n1	-9.5%	-22.7%
19	COc1ccc(-c2cc(C(F)(F)F)nc(SCC(=O)NCc3cnn(C)c3C)n2)cc1OC	-9.5%	5.5%
20	Cc1ccccc1-n1c(SCc2c(C)noc2C)nnc1-c1cccnc1	-4.5%	2.7%
21	COC(=O)C1CCN(C(=O)Cc2c(OC)ccc3cc(Br)ccc23)CC1	-5.9%	10.8%
22	O/N=C(\c1ccc(Cl)cc1)c1cc2ccccc2o1	-7.8%	4.3%
23	CCc1ccccc1NC(=O)c1ccoc1C	-2.9%	2.3%

Down the list, as entered above:
Entries 91–101 in N370S GC mod, in turn: 6.0%, 4.3%, 4.5%, -16.1%, u, x, -13.0%, -11.9%, -7.6%, 5.0%, 4.2%
